From PubChem
CSC inhib: cancer stem cell inhibition | cancer stem cell-like cells viability, luminescence | hit rate 1.1% among 300,000 | inhibition, % at 7.5 µM | AID 2717;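 active means mean at 75% or more and at least half the replicates too; tested in HMLE shEcad cells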;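 further: 0% = median of negative and 100% = median of positive control wells; the first replicate is given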
UUG fidelity: yeast start codon fidelity modulation; activity score, % at 18.7 µM; S. cerevisiae UUG-firefly luciferase reporter, luminescence/redox ratio; hit rate 0.13% among 350,000;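 active means replicate mean at a twofold rise or more, about +100% in these data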;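 further: firefly luciferase made from a UUG start codon reports start codon fidelity; reporter light over untreated wells divided by growth signal over untreated wells; some hits fall short of that in this replicate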
HIV Env fusion: blocks HIV Env-driven cell-cell fusion; HeLa-JRFL Env/CEM21 cell fusion, luciferase; inhibition, % at 12.3 µM; hit rate 1.1% among 360,000; AID 651610;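 active means mean replicate inhibition score of at least 50 and every replicate individually at or above 50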;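 further: 0% = plate neutral controls and 100% = maraviroc near 300 nM; one replicate is shown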
eIF4H inh: inhibitors of RNA binding by human eIF4H; inhibition, % at 35 µM; hit rate 0.94% among 290,000; Q15056; eIF4H fluorescence polarization binding assay;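 active means 50% or more with normal probe brightness, or confirmed in later tests; about a fifth of its hits are not listed in these tables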;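 further: calls also rest on retests at 20 µM and on dose response follow-up; 0% = protein and probe with vehicle and 100% = probe without protein; strong numbers were not always called active; many hits fall short of the cut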
MT1-MMP act inh: inhibitors of human MT1-MMP activation; P50281; HT1080 RFP-PRO-GFP cells, GFP/RFP ratio fluorescence, overnight; percent of plate control window, DMSO zero; GFP/RFP ratio change, % at 20 µM; hit rate 0.061% among 360,000;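 active means GFP/RFP ratio change of at least 30% with cell ATP level not reduced by more than half and red fluorescence within 50% of control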; further: strong numbers were not always called active
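Assay system: HT1080 cells carrying an RFP-PRO-GFP reporter | Dosing: Single dose of 20 µM compound, 1% DMSO final | Incubation: Cells overnight before dosing, compound overnight, 37 °C, 5% CO2 | Evaluation: GFP/RFP fluorescence ratio | Control set: DMSO and RFP-L50D-GFP cell wells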
Rce1 inhib: inhibitors of yeast Ras-converting enzyme. hit rate 0.27% among 290,000. AID 2563. Q03530. yeast membranes, quenched prenylated peptide cleavage fluorescence. calls only;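 active means fall in fluorescence gain of 50% or more versus controls, with final raw signal at or below 3038400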;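 further: plate controls were neutral control wells for no effect and wells lacking membranes for full effect; tested at 10 µM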
PABP FP inh: blocks human PABP binding to poly(A) RNA; fluorescence polarization; inhibition, % at 35 µM; hit rate 1% among 290,000; AID 2014;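 active means 50% or more with normal probe brightness, or confirmed in later tests; about a fifth of its hits are not listed in these tables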;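 further: calls also rest on retests at 20 µM and on dose response follow-up; controls were probe without protein and protein plus probe with vehicle; some compounds called inactive have numbers as strong as hits; many hits fall short of the cut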
Target sequence (P11940 whole entry, looked up): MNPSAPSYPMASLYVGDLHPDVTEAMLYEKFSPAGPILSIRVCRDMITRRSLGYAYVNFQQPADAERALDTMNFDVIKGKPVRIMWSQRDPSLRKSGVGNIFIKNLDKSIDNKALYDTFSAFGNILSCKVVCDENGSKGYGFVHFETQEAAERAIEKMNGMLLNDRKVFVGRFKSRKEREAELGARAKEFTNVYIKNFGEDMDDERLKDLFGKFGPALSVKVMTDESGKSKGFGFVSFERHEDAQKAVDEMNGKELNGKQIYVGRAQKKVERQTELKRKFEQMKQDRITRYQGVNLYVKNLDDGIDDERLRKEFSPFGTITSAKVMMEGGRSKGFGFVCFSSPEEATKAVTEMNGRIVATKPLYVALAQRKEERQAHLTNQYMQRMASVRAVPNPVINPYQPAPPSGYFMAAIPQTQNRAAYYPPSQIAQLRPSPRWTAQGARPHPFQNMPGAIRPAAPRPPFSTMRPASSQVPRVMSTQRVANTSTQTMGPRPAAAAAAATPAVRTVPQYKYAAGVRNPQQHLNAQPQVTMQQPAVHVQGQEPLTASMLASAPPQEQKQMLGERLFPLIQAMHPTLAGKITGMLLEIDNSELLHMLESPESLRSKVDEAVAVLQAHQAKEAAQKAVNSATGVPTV
eIF4H inh retest: second read-out of eIF4H inh, no call of its own (marks repeat the call); inhibition, %; compound at 20 µM; confirmation average;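 mean of two retest wells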
PABP FP inh retest: also measured in PABP FP inh; calls as there; inhibition, %; compound at 20 µM; confirmation repeats;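 mean of two retest wells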
MT1-MMP act inh RFP: recorded beside MT1-MMP act inh, whose call it bears; RFP signal change, %; measured here: RFP expression control read;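 0 = vehicle wells; hits needed this value within 50% of zero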
* = called active by the depositor; i = inactive; / = no result given.

SMILES	CSC inhib	UUG fidelity	HIV Env fusion	eIF4H inh	MT1-MMP act inh	MT1-MMP act inh RFP	Rce1 inhib	PABP FP inh	others
O=C(NCCN1C(=O)C2C3C=CC(C3)C2C1=O)Nc1ccc(Br)cc1 (stereo unspecified)	-22	-5	-142	-2	1	4	i	-2
O=C(OCn1ncc(Br)c(Br)c1=O)c1ccccc1Cl	-6	-16	/	-8	-7	-17	i	2
CCN(C(=O)COc1ncnc2sccc12)c1ccccc1	-9	-12	1	-7	-2	1	i	-10
O=C(c1c(F)cccc1F)N1CCC(O)(c2ccc(F)cc2)CC1	-5	-7	-14	-2	-1	1	i	11
O=C(COC(=O)c1cn(-c2ccccc2)nc1-c1cccs1)NC1CC1	-2	-15	/	-9	1	-1	i	2
COc1ccc(N2C(=O)CSC2c2cccc(F)c2)c(OC)c1 (stereo unspecified)	4	/	-33	-12	1	-1	i	-3
Cc1nnc(SCc2c(Cl)cccc2Cl)s1	0	-8	/	-6	-4	-1	i	-9
CCC(=O)N1CCC1(C)C(=O)Nc1ccc(Cl)c(Cl)c1 (stereo unspecified)	/	2	14	/	4	-5	/	/
CCN(C(=O)CN1C(=O)NC2(CCc3ccccc32)C1=O)C1CCS(=O)(=O)C1 (stereo unspecified)	-14	-8	-4	/	-5	1	/	/
COc1cc2cc(Oc3ccc4ccc(=O)oc4c3)c(=O)oc2cc1OC1OC(COC(=O)CC(C)(O)CC(=O)O)C(O)C(O)C1O (stereo unspecified)	3	3	/	0	2	-1	i	4
CCCc1nnc(SCC(=O)N2CCOCC2)n1C	-6	-26	-62	8	0	5	i	7
Cc1ccc(OCC(=O)N2CCN(C(=O)c3cccc(F)c3)CC2)cc1	4	7	-5	1	-3	1	i	8
CCOc1cccc(C(=O)Nc2cccc(C(=O)NCC(C)C)c2)c1	-7	-20	1	4	5	2	i	5
O=C1OCCC1N1C(=O)c2ccccc2S1(=O)=O (stereo unspecified)	-7	-17	/	7	-2	4	i	3
O=C(NC(=O)c1cccc(F)c1)OC[C@@H]1CCCN2CCCC[C@H]12	-11	-7	-12	-4	0	5	i	-29
COc1ccc(OC)c(N(CC(=O)Nc2cccnc2)S(=O)(=O)c2ccccc2)c1	0	-8	-26	-6	-2	0	i	6
CCN(CC)CCn1c2ccccc2c2nc3ccc([N+](=O)[O-])cc3cc21	40	-3	-183	-26	4	1	i	-27
Cc1noc(NS(=O)(=O)c2ccc(NC(=O)c3ccoc3C)cc2)c1C	-7	-6	-7	16	-1	6	i	12
COC(=O)[C@@]12CCCCN1[C@H](c1ccc(SC3CCCCC3)c(OC)c1)[C@@H]1C(=O)N(C)C(=O)[C@@H]12	-2	-11	12	/	-4	-8	i	/
CC(=O)N1CCN(C(=O)COC(=O)CNC(=O)c2ccccc2C)CC1	-11	/	-20	/	-4	0	i	/
Cc1cc(C(=O)O)ccc1-c1ccc(/C=N/n2cnnc2)o1	-1	-6	-3	-6	-1	-1	i	-1
Cc1cc(NC(=O)CSc2nnc(CNc3ccc(F)cc3)n2C2CCCCC2)no1	/	-12	27	-4	-4	1	i	-9
CCOc1ccc(OCC)c(NC(=O)CSc2nc3cccnc3n2C)c1	-6	-13	23	60	1	-12	i	-6	eIF4H inh retest=-3;PABP FP inh retest=3
CSc1ccccc1OCc1cc(C(=O)N2CCCC2c2nonc2C)no1 (stereo unspecified)	-16	-23	-73	2	0	-3	i	-2

Sorted by number of heavy atoms (falling): part of the list above.
SMILES	CSC inhib	UUG fidelity	HIV Env fusion	eIF4H inh	MT1-MMP act inh	MT1-MMP act inh RFP	Rce1 inhib	PABP FP inh	others
CCOc1ccc(OCC)c(NC(=O)CSc2nc3cccnc3n2C)c1	-6	-13	23	60	1	-12	i	-6	eIF4H inh retest=-3;PABP FP inh retest=3
Cc1noc(NS(=O)(=O)c2ccc(NC(=O)c3ccoc3C)cc2)c1C	-7	-6	-7	16	-1	6	i	12
Cc1cc(C(=O)O)ccc1-c1ccc(/C=N/n2cnnc2)o1	-1	-6	-3	-6	-1	-1	i	-1

Structures from the list above containing bromine, in the order listed:
SMILES	CSC inhib	UUG fidelity	HIV Env fusion	eIF4H inh	MT1-MMP act inh	MT1-MMP act inh RFP	Rce1 inhib	PABP FP inh	others
O=C(NCCN1C(=O)C2C3C=CC(C3)C2C1=O)Nc1ccc(Br)cc1 (stereo unspecified)	-22	-5	-142	-2	1	4	i	-2
O=C(OCn1ncc(Br)c(Br)c1=O)c1ccccc1Cl	-6	-16	/	-8	-7	-17	i	2

Further structures.
SMILES	CSC inhib	UUG fidelity	HIV Env fusion	eIF4H inh	MT1-MMP act inh	MT1-MMP act inh RFP	Rce1 inhib	PABP FP inh	others
COc1ccc(OC)c(N(CC(=O)O)S(=O)(=O)c2ccc(OC)c(OC)c2)c1	/	0	-64	-6	5	1	i	-2
Cc1ccccc1-c1nnc(SCC(=O)Nc2ccc3c(c2)OCCO3)n1N	-13	-19	27	-4	4	3	/	-6
CCOC(=O)c1sc(NC(=S)NC(=O)c2ccccc2Cl)c(C(=O)OCC)c1C	8	-12	/	-9	4	7	i	13
Cc1noc(C)c1CN(C(=S)NC1CC1)c1ccccc1	-13	-23	20	-20	1	6	i	-24
O=S(=O)(Nc1nc2ccccc2[nH]1)c1ccccc1	-7	-26	-13	-13	2	4	/	-2
CCOc1ccc(/C(O)=C2/C(=O)C(=O)N(c3ncccn3)C2c2ccc(Cl)cc2)cc1 (stereo unspecified)	-3	-9	0	3	-3	-1	i	11
COc1ccc([N+](=O)[O-])cc1NC(=O)CSCc1ccc(Br)cc1	/	-18	17	-10	0	-5	i	-17
CC(=O)NCCC1CCCCN1C(=O)c1cc(COc2cc(C)ccc2C)on1 (stereo unspecified)	0	-24	-17	-3	-1	0	i	6
Cc1nc(N)ncc1Sc1ccc(Cl)cc1	-4	/	6	2	-4	-2	i	-3
COC(=O)c1cc(NCc2cccs2)ccc1N1CCOCC1	-4	-8	24	3	2	0	i	-9
CC(=O)NCCC(=O)Nc1cc(S(=O)(=O)N2CCCCC2)ccc1Oc1cccc(C)c1	1	8	-2	-14	3	0	i	11
CCOCCn1c(=O)c2c(nc3n2CCN3c2ccc(C)cc2)n(C)c1=O	-10	2	4	/	/	/	i	/
CCOc1ccc(NS(=O)(=O)c2cc(C(=O)N3CC(C)OC(C)C3)ccc2C)cc1 (stereo unspecified)	-1	-4	-27	/	5	-2	i	/
Cc1ccc(-c2cn3c(n2)SCC3)cc1	-1	/	-54	-1	-1	0	i	-14
Cc1nc(NC(=O)c2cc3ccccc3o2)sc1C	-14	-41	-70	-12	-1	-1	/	1
CCCOc1ccc(C(=O)CCC(=O)OCC(=O)N(C)c2c(N)n(Cc3ccccc3)c(=O)[nH]c2=O)cc1	-15	-3	-16	2	-2	2	i	3
COc1ccc(NC(=O)CN(C)C(=O)c2ccc3c(c2)OCCO3)cc1	-16	-16	-7	/	1	2	i	/
C=CCc1cc(Cl)ccc1OCCOCCNC(C)(C)C	33	/	1	5	-1	5	/	-12
Cc1ccc2cc3c(nc2c1)OCC3	-6	/	-14	4	1	4	i	-8
O=c1c2ccccc2cnn1Cc1n[nH]c(=S)n1-c1ccc(F)cc1	-8	/	13	-2	2	5	i	-6
COc1cccc(C(=O)C(CCC#N)c2ccccc2)c1 (stereo unspecified)	/	8	-2	/	1	0	/	/
Cc1ccc(Nc2nnc(SCC(=O)NCC3CCCO3)s2)cc1C (stereo unspecified)	-9	-21	-55	/	-2	-6	/	/
O=C(Cn1c(=O)oc2cc(S(=O)(=O)N3CCc4ccccc43)ccc21)N1CCCCC1	-8	-12	-14	5	/	/	i	40
CCC1S/C(=N/N=C/c2ccco2)NC1=O (stereo unspecified)	12	/	-1	9	0	0	i	-11

Gathered by group, the entries above with a COOH group (3)
SMILES	CSC inhib	UUG fidelity	HIV Env fusion	eIF4H inh	MT1-MMP act inh	MT1-MMP act inh RFP	Rce1 inhib	PABP FP inh	others
COc1cc2cc(Oc3ccc4ccc(=O)oc4c3)c(=O)oc2cc1OC1OC(COC(=O)CC(C)(O)CC(=O)O)C(O)C(O)C1O (stereo unspecified)	3	3	/	0	2	-1	i	4
Cc1cc(C(=O)O)ccc1-c1ccc(/C=N/n2cnnc2)o1	-1	-6	-3	-6	-1	-1	i	-1
COc1ccc(OC)c(N(CC(=O)O)S(=O)(=O)c2ccc(OC)c(OC)c2)c1	/	0	-64	-6	5	1	i	-2

The list continues:
SMILES	CSC inhib	UUG fidelity	HIV Env fusion	eIF4H inh	MT1-MMP act inh	MT1-MMP act inh RFP	Rce1 inhib	PABP FP inh	others
CCc1cccc(NC(=O)CCC(=O)N2CCSc3ccccc32)c1	/	4	0	0	2	3	i	-4
COc1cc(C(C(=O)NC2CCCCC2)N(CCN2CCOCC2)C(=O)C2COc3ccccc3O2)cc(OC)c1OC (stereo unspecified)	-10	/	25	9	0	0	i	0
O=C(Nc1ccc2c(c1)OCCO2)c1cccc(S(=O)(=O)N2CCOCC2)c1	4	-13	-102	-2	3	3	i	-7
Cc1cc(=O)[nH]c2c(N=Nc3ccc(O)cc3)c(N)nn12	/	-2	-4	-3	5	-5	i	5
CCN1CCN(CCOc2cccc(Oc3ccccc3)c2)CC1	38	/	10	3	0	-7	i	10
Cc1cccc(-n2nnc3cnn(C)c3c2=O)c1	-3	/	/	-1	4	5	i	0
Cc1cc2c(cc1C)CN(c1ccccc1)C2	4	-26	-98	-2	-8	5	i	3
COc1ccc(Br)cc1CNc1ccc(N2CCOCC2)cc1	3	-24	10	-11	3	2	i	-7
COc1ccccc1NC(=O)Nc1ccccc1N1CCOCC1	-17	2	2	6	-4	-3	i	11
O=C(CNC(=S)N(Cc1ccc(F)cc1)C1CCCCC1)NCCN1CCOCC1	16	-15	2	-4	2	3	i	-4
COc1ccc(NC(=O)COc2nsnc2N2CCOCC2)cc1	/	/	-22	2	2	4	i	-1
COC(=O)CSc1nnc(Cc2cc(=O)[nH]c(=O)[nH]2)n1-c1cccc(OC)c1	-3	8	-42	-3	-3	4	/	3
Cc1noc(NS(=O)(=O)c2ccc(NC(=O)C(Cl)(Cl)Cl)cc2)c1C	7	-4	10	-2	-1	3	i	-4
COc1cccc(N2CCN(c3ccc4nnc(CCC(=O)Nc5cc(C)ccn5)n4n3)CC2)c1	-4	-18	1	-6	3	1	i	12
CC(C(=O)N(C)C1CCCCC1)N1CCC(C(N)=O)CC1 (stereo unspecified)	4	-18	3	6	3	4	i	13
COc1cc([N+](=O)[O-])cc(/C=N/NC(=O)c2cccnc2)c1O	-4	-18	-3	14	0	-1	i	6
OCCNCc1cc(Br)ccc1OCc1ccc(Cl)cc1Cl	/	-13	/	-6	-4	-12	i	0
COc1ccc(C(=O)NCCSC2CCCCC2)cc1	13	/	/	5	0	3	i	2
CCCCCCn1c(COc2ccccc2F)nnc1SCC(=O)c1c(N)n(C)c(=O)n(C)c1=O	0	/	-14	10	/	/	i	4
NC(=O)NNc1cccc(Cl)n1	-9	-15	12	2	-1	0	/	14
O=C(CCN1C(=O)C2C3C=CC(C3)C2C1=O)N1CCN(c2cccc(Cl)c2)CC1 (stereo unspecified)	16	0	/	-3	4	-3	i	-8
